Screens deposited in PubChem by National Center for Advancing Translational Sciences (NCATS).
VACV Venus inh: inhibitors of vaccinia virus (Venus reporter); Vaccinia virus Venus reporter expression, fluorescence; Potency, µM (doses to about 36.5 µM), for the others: at the highest dose activity change, negative = inhibition, most hits filed as inhibitors; hit rate 0.46% among 330,000; AID 720580; active means well fitted inhibition curve with a large enough effect; inconclusive means small, poorly fitted or top-dose-only effect; inactive means no such curve, though single readings can be large or run the other way; tested in A549 cells; also: nearly all actives have a fitted effect of over 30% in size; inactives centre near -10
VACV mCherry inh: vaccinia inhibition (mCherry reporter) | AID 720579 | hit rate 0.63% among 310,000 | Vaccinia virus mCherry reporter infection, fluorescence; about a quarter of the inactives have no number | Potency, µM (top dose mostly 36.5 µM), for the others: at the top dose activity change, negative = inhibition, most hits filed as inhibitors; active = well fitted inhibition curve with a large enough effect; inconclusive = small, poorly fitted or top-dose-only effect; inactive = no such curve, though single readings can be large or run the other way; tested in A549 cells; also: nearly all actives have a fitted effect of over 35% in size; inactives centre near -10
* hit, by the source's call; i = inactive; ? = inconclusive; . = no result given; & = joins results of further samples. % is scaled to controls: 0 for no effect and ±100 for the full control effect; potency is read from the fitted curve at half-maximal effect. Outcome played no part in choosing rows. About 0.82% of those tested had a hit in this group.

SMILES	VACV Venus inh	VACV mCherry inh
COc1ccc(CNC(=O)c2cc3cc(S(=O)(=O)N4CCCCC4)ccc3n2C)c(OC)c1	-19%	-18%
Fc1cc2[nH]c(=S)[nH]c2cc1Cl	-21%	-4%
CCn1c(SCC(=O)c2ccccc2)nc2ccccc2c1=O	-13%	-9%
Cc1nnc(SCC(=O)Nc2ccc(O)cc2)c2ccccc12	-16%	?
COC(=O)[C@@H]1C[C@@]2(O)[C@H](O)[C@H](O)[C@H](O)C[C@H]2N1Cc1cc(F)ccc1F	-4%	-6%
Cc1cc2c(C)nc3ccccc3c2o1	-35%	.
O=C1OCCC1=COCCOC=C1CCOC1=O	0%	-6%
COc1ccc(CN2CCN(C(=O)COc3ccccc3)CC2)c(OC)c1	-12%	-12%
O=C(NCc1cccc(Cl)c1)c1cc2c(s1)-c1ccccc1OC2	-17%	-13%
COc1ccc(CN(Cc2ccccc2)C(=O)C2CC2)cc1COc1ccc(NC(C)=O)cc1	-29%	-11%
O=C(NCc1ccc2c(c1)OCO2)OCc1ccccc1	-14%	i
CCn1c(=O)n(CC)c2cc(N3CCCC3)c(NC(=O)c3cccc(C)c3)cc21	-16%	?
O=C(C1CCCO1)N1CCC2(CC1)OCCO2 (configuration not stated)	4%	-2%
Cc1ccccc1NC(=O)COC(=O)c1ccc(C)c(S(=O)(=O)N2CCCCC2)c1	-16%	0%
CC(=O)c1cccc(NC(=O)CN2C(=S)NC(C)(C)CC2C)c1 (configuration not stated)	0%	-3%
CCn1cc(C(=O)O)c(=O)c2cc3c(cc21)OCO3	-2%	-16%
O=C(Cn1ncc2c3ccccc3n(Cc3ccccc3)c2c1=O)NCCCN1CCCCC1	-14%	-10%
N#Cc1cccc(NC(=O)CNc2cccc(S(=O)(=O)N3CCCCC3)c2)c1	-7%	-14%
CN(C)S(=O)(=O)c1ccc(N2CCCC2)c(C(=O)Nc2ccccc2N2CCOCC2)c1	-7%	-7%
CC(C)C[C@@H](CN)NC(=O)c1nc[nH]c1C(=O)N[C@@H](C)C(=O)CNC[C@H](CC(C)C)NC(=O)c1nc[nH]c1C(=O)N[C@@H](CC(=O)O)C(=O)O	-3%	-15%
O=S(=O)(Cc1ccccc1)Nc1ccc(Br)cn1	-5%	-21%
O=C(Nc1ccc(S(=O)(=O)N2CCc3ccccc32)cc1)C(F)(F)F	-9%	-8%
COCCCNC(=O)C1CCN(C(=O)c2cnn(-c3ccccc3)c2-n2cccc2)CC1	0%	-8%
OCCN(CCO)c1nc(-c2ccccc2)nc2c1oc1ccccc12	-24%	-26%
CCN(CCCNC(=O)CCCN1C(=O)COc2ccc(C)cc21)c1cccc(C)c1	-15%	-20%
(listing goes on)
SMILES	VACV Venus inh	VACV mCherry inh
O=C(CC1C(=O)NCCN1Cc1cccc(F)c1)NC1CCCCCC1 (configuration not stated)	0%	-11%
CCn1c(=O)c2sccc2n2c(CCCC(=O)Nc3ccc(C)cc3)nnc12	-5%	-14%
Cc1[nH]ccc2cc3nc4ccccc4c3cc12	?	?
CCCc1cc(=O)[nH]c(SCC(=O)NCc2ccc3c(c2)OCO3)n1	-7%	-7%
Cn1c(C(=O)N2CCCC(C(=O)NCc3cccs3)C2)cc2sccc21 (configuration not stated)	-8%	-17%
CCC(C(=O)NC1CC1)n1nc(C)c2c(C)n(-c3ccccc3)nc2c1=O (configuration not stated)	-3%	-14%
Cc1ccc(NC(=O)CN2C(=O)S/C(=C\c3ccccn3)C2=O)cc1	0%	i
CCOC(=O)/C(=C/Nc1ccccc1)[N+](=O)[O-]	3%	.
CC1(O)c2ccccc2C(=O)N1CCc1ccccc1F (configuration not stated)	-2%	-8%
CC(=O)N1CCN(C(=O)c2ccc(OC3CCN(CCc4ccccc4)CC3)cc2)CC1	-6%	-6%
COc1cc(/C=N/n2c(C)n[nH]c2=S)ccc1OCc1ccc(F)cc1	-24%	i
CCOc1ccc(C(=O)c2cn(CC(=O)Nc3ccc(Cl)cc3)c3cc4c(cc3c2=O)OCO4)cc1	-15%	-16%
CCOC(=O)Cn1cc(/C=C(\C#N)C(=O)N2CCOCC2)c2ccccc21	0%	-1%
Nc1nonc1-n1nnc(C(=O)N/N=C/c2ccc(F)cc2)c1-c1cccs1	-8%	-15%
O=C(NCc1ccc(Cl)cc1)c1ccc(-c2ccc(F)c(F)c2)c2ccoc12	-6%	-15%
CCNc1ccc(C(=O)OCC(=O)c2cc(C)n(Cc3ccc4c(c3)OCO4)c2C)cc1[N+](=O)[O-]	-15%	-6%
COc1ccc(-c2nc3cc(NC(=O)COc4ccc(C)c(C)c4)ccc3o2)cc1	3%	1%
CC(=O)Nc1ccc(S(=O)(=O)Oc2cccc(/C=C3\SC(N)=NC3=O)c2)cc1	-3%	-6%
COc1ccccc1N1CCN(C(CNS(=O)(=O)c2ccccc2)c2cccnc2)CC1 (configuration not stated)	-15%	.
Cc1cc(C)c(Cn2c(=O)n(Cc3ccccc3)c(=O)c3c(C)c(C)sc32)c(C)c1	0%	-10%
Cc1ccc(CNC(=O)CCC(=O)n2ncc3cc(C)ccc32)cc1	4%	-15%
CC(C)(C)Cc1nnc(NC(=O)c2ccc([N+](=O)[O-])cc2)s1	-12%	-5%
O=C(Cn1nc(Cc2cccnc2)c2ccccc2c1=O)NCC1COc2ccccc2O1 (configuration not stated)	1%	-9%
Cc1ccc(C(C(=O)NC2CCCCC2)N(Cc2ccco2)C(=O)C2COc3ccccc3O2)o1 (configuration not stated)	-10%	i
COc1cc(Cl)c(NC(=O)c2cc3ccccn3n2)c(OC)c1	0%	-10%
The list continues.
SMILES	VACV Venus inh	VACV mCherry inh
CN(C)S(=O)(=O)c1ccc2c(c1)c(=O)c(C(=O)N1CCN(c3cccc(Cl)c3)CC1)cn2C	?	?
CC(NC(=O)C1CCN(S(=O)(=O)Cc2ccccc2)CC1)c1ccccc1 (configuration not stated)	-8%	-5%
O=C(CNc1ccc(Br)cc1)Nc1ccc(S(=O)(=O)N2CCCCC2)cc1	-28%	-9%
CCOc1ccc(-n2c(N)c(C(=O)NCc3ccco3)c3nc4ccccc4nc32)cc1	-11%	-24%
O=C(CSc1oc(-c2ccc(F)cc2)nc1S(=O)(=O)c1ccccc1)c1ccc(Cl)cc1	-16%	-19%
CCOc1cc(/C=C/c2ccc3cccc([N+](=O)[O-])c3n2)ccc1OCC(=O)N(C)C	?	?
OCC#CC[N+]1(CC#Cc2ccccc2)CCCC1	-8%	-23%
CN1C(C(=O)c2ccccc2)=C(N)c2ccccc2S1(=O)=O	-11%	-4%
CC1(C)CC(=NOC(=O)c2ccccc2)CC(C)(C)N1	-10%	-3%
Cc1cccc(C)c1NC(=O)CN1CCN(C(=O)c2ccc(OCc3cn4ccccc4n3)cc2)CC1	1%	i
COC(=O)CN1C(=O)C(O)(CC(=O)c2ccc(C)cc2)c2ccccc21 (configuration not stated)	-8%	.
O=C(CCCOc1ccc(Cl)cc1Cl)Nc1ccccc1C(=O)O	23%	-1%
N=C1C(c2nc3ccccc3[nH]2)=C(O)CN1C1CCCCC1	-17%	-1%
CN(C)CC(=O)Nc1nc(-c2ccccc2)cs1	-11%	-5%
O=C(NCc1ccc(Cl)cc1Cl)c1ccc2nc[nH]c2c1	-1%	-14%
COc1ccccc1NC(=O)COc1ccc(C(=O)NC2CCCc3ccccc32)cc1OC (configuration not stated)	-11%	-15%
CCOC(=O)C1CCc2sc(N)c(C#N)c21 (configuration not stated)	2%	-8%
CN(C)CCCOc1ccc2c(c1)Sc1ccccc1CC2=O	-9%	i
O=C(Nc1c2c(nn1-c1cccc(Cl)c1)CS(=O)(=O)C2)C1CC1	-4%	-10%
Cc1csc2nc(COc3ccc(NC(=O)C(C)C)cc3)cc(=O)n12	-7%	-1%
CCNC(=O)c1ccc2c(c1)C1C3CCC(C3)C1C(c1ccccc1)N2 (configuration not stated)	?	?
COCC(O)Cn1ccnc1N=Nc1ccccc1 (configuration not stated)	6%	-12%
CC(C)=CCC/C(C)=C/CC/C(C)=C/COc1ccc2ccc(=O)oc2c1	1%	-9%
CCN1CCC[C@H]1CNC(=O)c1cc(S(N)(=O)=O)ccc1OC	-7%	-20%
Cc1cc(C)nc(-n2cc(C(=O)c3cc(F)ccc3O)cn2)n1	-4%	i
Other structures follow.
SMILES	VACV Venus inh	VACV mCherry inh
COc1ccc(OC)c(N(CC(=O)NCCSCc2ccco2)S(=O)(=O)c2ccc(OC)c(OC)c2)c1	-13%	-23%
CC(=O)CC1(C)OC(N)=C(C#N)C1(C#N)C#N (configuration not stated)	-7%	.
Cc1ccc(C)c(Nc2c([N+](=O)[O-])ccc3nonc23)c1	-22%	-15%
COC(=O)CSc1nnc(-c2cccc(NC(=O)c3ccc(C)cc3)c2)n1C	-10%	.
Cc1ccc(-n2ncc3c(=O)n(-c4cccc(C)c4)c(=O)[nH]c32)cc1	-3%	i
CCN1CC(C)C(O)(c2ccccc2)CC1C (configuration not stated)	-9%	0%
CN1CCN(S(=O)(=O)c2cccc(C(=O)Nc3cc(C(N)=O)cc(C(N)=O)c3)c2)CC1	-9%	-12%
CN1CC=C2C(C#N)=C(N)C(C#N)(C#N)C(c3ccncc3)C2C1 (configuration not stated)	14%	-4%
O=S(=O)(c1cnc(Cl)c(Br)c1)N1CCCCCC1	-11%	-14%
COc1ccc(/C=C2\SC(=O)N(CCNC(=O)Cn3[nH]c(=O)c4ccccc4c3=O)C2=O)cc1	10%	-23%
COc1cc(C2Nc3ccccc3NC3=C2C(=O)CC(C)(C)C3)cc(OC)c1OC(C)=O (configuration not stated)	-9%	-9%
CN(C)[C@@H]1C(=O)C(C(N)=O)=C(O)[C@@]2(O)C(=O)C3=C(O)c4c(O)cccc4[C@@](C)(O)C3[C@H](O)C12 (some centres not stated)	-3%&-16%	-6%
Cc1ccc2c(c1)N(CC(=O)N1CCCC1)C(=O)C(C)O2 (configuration not stated)	2%	i
c1ccc2c(c1)OC(CCCN1CCCCC1)c1ccccc1S2 (configuration not stated)	-26%	-9%
O=S1(=O)c2ccccc2N(Cc2ccccc2F)c2ccccc21	-15%	-8%
CCCC(CCC)C(=O)NC1CCN(Cc2ccccc2)CC1	-12%	-6%
CCN(CC)c1ccc(C(=O)OCC(=O)Nc2ncccn2)cc1	-2%	-14%
Cc1ccc(C(=O)OCC(=O)N2CC(C)CC(C)C2)cc1S(=O)(=O)N1CCOCC1 (configuration not stated)	0%	-5%
Cc1[nH]n(-c2ccccc2)c(=O)c1/C=N/N(C)c1ccccc1	-17%	-7%
C#CCOc1ccc(Cl)cc1/C=N/O	-20%	-15%
CCN(C(=O)Nc1cn(CC(C)C)c(=O)c2ccccc12)c1cc(C)ccc1C	-1%	1%
O=C(NCCN1C(=O)C2C3C=CC(C3)C2C1=O)Nc1cccnc1 (configuration not stated)	-4%	-2%
CCOC(=O)[C@@H]1[C@H]2COc3ccc(Br)cc3[C@@H]2N2C(=O)N(c3ccc(F)cc3)C(=O)[C@@]12C	-17%	-21%
Oc1ccccc1/C=N/[n+]1ccccc1	1%	-12%
CCCC(NCC(=O)Nc1ccccc1C(=O)NC1CC1)c1ccccc1 (configuration not stated)	-9%	i
Next part
SMILES	VACV Venus inh	VACV mCherry inh
CC(=O)Nc1ccc(C)cc1-c1nc2ccccc2n(Cc2cccc(Br)c2)c1=O	-5%	-15%
Cc1ccc(Cn2nnc3c(=O)[nH]c(C4CCN(S(=O)(=O)c5ccccc5F)CC4)nc32)cc1	-20%	-29%
Cc1ccc(NC(=O)c2ccccc2NC(=O)Cc2ccccc2)cc1	-19%	-20%
CCCNC(=O)C1(C)CCCN(C(=O)Cc2ccc(OC)cc2)C1 (configuration not stated)	-3%	0%
COc1ccc(-c2cc(C)no2)cc1S(=O)(=O)NCCc1ccco1	-23%	-10%
c1ccc2c(-c3ccncc3)c[nH]c2c1	7%	-21%
CCc1ccccc1NC(=O)NC1CCCCCCC1	-3%	i
CCOC(=O)c1c(NC(=O)CCS(=O)(=O)c2ccccc2)sc2c1CCN(C(C)C)C2	?	-26%
COc1ccccc1N1CCN(C(=O)c2cc3ccc4ccc(C)[nH]c4c3n2)CC1	-3%	-10%

At a glance, some entries already given:
SMILES	VACV Venus inh	VACV mCherry inh
CN1C(C(=O)c2ccccc2)=C(N)c2ccccc2S1(=O)=O	-11%	-4%
CC1(C)CC(=NOC(=O)c2ccccc2)CC(C)(C)N1	-10%	-3%
Cc1cccc(C)c1NC(=O)CN1CCN(C(=O)c2ccc(OCc3cn4ccccc4n3)cc2)CC1	1%	i
COC(=O)CN1C(=O)C(O)(CC(=O)c2ccc(C)cc2)c2ccccc21 (configuration not stated)	-8%	.
O=C(CCCOc1ccc(Cl)cc1Cl)Nc1ccccc1C(=O)O	23%	-1%
N=C1C(c2nc3ccccc3[nH]2)=C(O)CN1C1CCCCC1	-17%	-1%
CN(C)CC(=O)Nc1nc(-c2ccccc2)cs1	-11%	-5%

Molecules from the list above with two or more sulfur atoms:
SMILES	VACV Venus inh	VACV mCherry inh
Cn1c(C(=O)N2CCCC(C(=O)NCc3cccs3)C2)cc2sccc21 (configuration not stated)	-8%	-17%
CC(=O)Nc1ccc(S(=O)(=O)Oc2cccc(/C=C3\SC(N)=NC3=O)c2)cc1	-3%	-6%
O=C(CSc1oc(-c2ccc(F)cc2)nc1S(=O)(=O)c1ccccc1)c1ccc(Cl)cc1	-16%	-19%
COc1ccc(OC)c(N(CC(=O)NCCSCc2ccco2)S(=O)(=O)c2ccc(OC)c(OC)c2)c1	-13%	-23%
CCOC(=O)c1c(NC(=O)CCS(=O)(=O)c2ccccc2)sc2c1CCN(C(C)C)C2	?	-26%
